CapD inh = Bacillus anthracis CapD inhibitors, primary screen, biochemical, fluorescence intensity. hit rate 0.23% among 140,000. CapD gamma-glutamyltranspeptidase (Bacillus anthracis Ames Ancestor). z-score (test concentration not listed). purified CapD enzyme, fluorescence intensity read-out; hits give low values; some hits fall short of the stated cut;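 active = z-score under -4 in either of two replicates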;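 also: stock transfer was 100 nL into about 40 µL; score is relative to mean and spread of the plate; one replicate is shown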
AID504770 = growth inhibition of E. coli YBA685, primary screen, V. cholerae RctB inhibitors. z-score (concentration not given with the values). AID 504770, 2011. hit rate 0.27% among 130,000. E. coli YBA685 rctB-dependent plasmid, OD600 growth, 3 h; hits give low values;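 active = z-score under -2 on both plates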;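 also: wells of about 30 µL received 100 nL stock; score is relative to mean and SD of the test wells; the first replicate is given; strong numbers were not always called active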
An asterisk follows results filed as active; x = not tested or not shown; & = joins results of further samples.

SMILES | CapD inh | AID504770
NC(N)=NC(N)=Nc1cc(Cl)cc(Cl)c1 | -0.64 | x
O=C(OCC(=O)N1CCN(c2ccccc2)CC1)c1ccc2[nH]c3c(c2c1)CCCC3 | x | 0.25
Cc1c(C(=O)OC(C)C(=O)Nc2ccc(S(N)(=O)=O)cc2)sc2nc3n(c(=O)c12)CCCCC3 (centres undefined) | x | 1.2
COC(=O)c1ccccc1N=Cc1sc(=S)[nH]c1O | -0.11 | 0.05&0.25
O=C(Cn1c(C(F)(F)F)nc2ccccc21)OCc1nnc(-c2ccc(Cl)cc2)o1 | x | 1.7
NS(=O)(=O)c1ccc(N/C=C/C(=O)c2ccccc2)cc1 | 1.4 | 0.25
O=S(=O)(Nc1nc2ccccc2nc1NCCC1=CCCCC1)c1ccccc1 | 0.6 | -0.55
NC(=O)C(Cc1c[nH]c2ccccc12)NC(=O)OCc1ccncc1 (centres undefined) | -0.39 | x
CN=c1scc(-c2ccc(OC)cc2)n1/N=C/c1cc(Br)c(O)c(OC)c1 | x | 0.1
COc1cccc(-c2nc3ccccc3c(=O)n2NC(=O)c2cc(OC)ccc2Br)c1 | -0.48 | x
O=C1NCCCC1c1n[nH]c(=S)n1Cc1ccccc1 (centres undefined) | -0.04 | -0.35
Cc1cc(C(=O)Cn2cnc3ccsc3c2=O)c(C)n1CCc1ccc(F)cc1 | x | 1.1
CN(C(=O)CSc1ccc(Cl)cc1)c1ccc(F)cc1F | 0.4 | x
CCc1ccccc1NC(=O)c1ccc(F)c(S(=O)(=O)N2CCc3ccccc32)c1 | -0.52 | x
NS(=O)(=O)c1ccc(NC(=O)CCC(=O)c2ccc(F)cc2)cc1 | x | -0.5
CN(C(=O)COc1ccc2ccc(=O)oc2c1)c1ccccc1 | 4.3 | 0.4
CC1CCC(NC(=O)Cn2ncc3c2-c2ccccc2OC3)CC1 (centres undefined) | -0.16 | -1.4
CCS(=O)(=O)NCC(c1cccnc1)N1CCN(c2ccccc2)CC1 (centres undefined) | x | -0.5
Fc1ccc(CNC(c2ccc(F)cc2)c2nnc(-c3ccccc3)o2)cc1 (centres undefined) | -0.62 | 0.2
Fc1ccc(CSc2c[nH]c3ccccc23)cc1 | -0.62 | -0.05
COc1ccc([N+](=O)[O-])cc1NC(=O)c1sc2ncn(CC(=O)Nc3ccc(C)c(Cl)c3)c(=O)c2c1C | 0.32 | x
COc1ccc(N2CCN(C(=O)CCCn3c(=S)[nH]c4ccc(Br)cc4c3=O)CC2)cc1 | -1.3 | x
CC/C(O)=C(\C#N)c1nc2ccccc2n1C | x | -1.2
COc1ccc(-c2noc(CCC(=O)N3CCCC3)n2)cc1 | 0.57 | -1.7
CC(C)(C)C(=O)OCc1nc(-c2ccc([N+](=O)[O-])cc2)cs1 | -0.26 | x
Additional records follow:
SMILES | CapD inh | AID504770
CC(=O)Oc1cc(CO)cc(OC(C)=O)c1OC(C)=O | -1.3 | x
C=CCOC(=O)COc1cc2oc(=O)c3c(c2cc1Cl)CCC3 | 4 | -0.6
Cc1ccc2oc(=O)c3cnn(CC(=O)N4CCCc5ccccc54)c3c2c1 | 0.04 | -1.1
CC(C)CCNc1ncnc2onc(-c3ccc(Cl)cc3)c12 | 1.2 | 0.55
CC(C)(C)OC(=O)N1CC=C2C(C#N)=C(N)C(C#N)(C#N)C(c3ccsc3)C2C1 (centres undefined) | -0.11 | x
COc1cccc(N=CC23c4ccccc4C(c4ccccc42)C2C(=O)N(c4cccc5ccccc45)C(=O)C23)c1 (centres undefined) | -0.98 | x
S=c1[nH]nc(CSc2nc3ccccc3s2)o1 | -0.95 | -0.75
N#Cc1c(-c2cccnc2)cc2c(c1N)c(=O)oc1ccccc12 | 1.9 | 0.25
CCn1nc(C)cc1C(=O)NN | 9.5 | 0.05
Cc1ccc2c(COC(=O)/C=C/c3ccc(Br)o3)cc(=O)oc2c1 | x | -0.2
O=C(O)CCCN1C(=O)/C(=C2\SC(=S)N(CCCC(=O)O)C2=O)SC1=S | 1 | -2.2
Nc1nnc(Sc2ccc(C(F)(F)F)cc2[N+](=O)[O-])s1 | 0.31 | x
CCOc1cc(S(=O)(=O)n2ccnc2)ccc1Br | 0.055 | 0.55
CCOc1ccc(-n2c(C)nc3cc(C(=O)NCc4ccccc4OC)ccc32)cc1 | 1.2 | x
c1cnc2sc3c(N4CCOCC4)ncnc3c2c1 | 23 | 0.15
CCc1ccc(N2C(=O)CNC2=S)cc1 | x | 0.6
OCCNc1nc(N2CCOCC2)nc(N2CCOCC2)n1 | 0.03 | 0
O=C(NCCc1ccccc1)c1cc(-c2ccccc2)nc2ccccc12 | 3.7 | 0.55
Cc1ccccc1OCCSc1nnc(-c2ccc3c(c2)OCO3)o1 | x | -0.05
O=C(Nc1ccc(OC(F)(F)F)cc1)OCCc1csc2ccccc12 | 0.56 | -0.25
S=c1[nH]nc(CNc2ccc(I)cc2)n1-c1ccccc1 | 0.02 | -0.1
CCOC(=O)N1CCN(C(=O)c2cccs2)CC1 | 0.64 | -0.25
O=c1c(O)c(-c2ccc(F)c(Oc3ccccc3)c2)oc2ccccc12 | 2.3 | -0.45
COc1ccc(CCN(C)c2nc(N)c3c(N)nc(SCC(=O)O)cc3c2C#N)cc1OC | x | -1.1
COc1ccc2c(c1)-c1c(ssc1=S)C(C)(C)N2C(=O)c1ccc(C)cc1 | -0.62 | x
Next section.
SMILES | CapD inh | AID504770
O=C(CCC(=O)N1CCCCc2ccccc21)NC1CCCC1 | 0.31 | 0.45
c1coc(-c2ccnc3nc(-n4cccc4)nn23)c1 | 21 | -0.4
CC(C)c1nnc2c3c4c(sc3ncn12)CCCC4 | 0.33 | 0
O=C(O)C1Cc2ccccc2-c2ccccc2C1 | 0.2 | x
C=CCNc1nc(OC(C(F)(F)F)C(F)(F)F)nc(N2CCOCC2)n1 | -0.43 | x
Cc1nc2ccccn2c1P(=O)(N1CCCCC1)N1CCCCC1 | x | -0.45
O=C1c2ccc(-c3ncc(-c4ccccc4)o3)cc2C(=O)N1c1ncn[nH]1 | 0.075 | -0.1
COc1cc(OC)c(OC)cc1/C=C1\N=C(c2ccccc2Br)OC1=O | -0.28 | x
Cc1ccc(N2C(=O)C(N3C(=O)c4ccccc4C3=O)C2c2ccc(N(C)C)cc2)cc1F (centres undefined) | -0.07 | x
O=C(O)CCCNCc1cccc2ccccc12 | 0.19 | x
O=C(CSc1nc2c(c(=O)[nH]1)CSC2)c1ccc(Cl)cc1 | -0.095 | -0.65
CCCc1cc(Br)c(-n2cccc2)c(Br)c1 | 0.06 | x
COC(=O)COc1ccc(S(=O)(=O)Nc2ccc(C(F)(F)F)cc2)cc1 | -0.42 | -0.85
Cc1cc(C)c2c(N)c(C(=O)NC(C)c3ccccc3)sc2n1 (centres undefined) | 0.46 | 0.6
O=C(Nc1ccccc1)OCCSc1nc2ccccc2s1 | 0.3 | x
CC1CCc2c(oc3ccc(NS(=O)(=O)c4ccccc4)cc23)C1 (centres undefined) | -0.32 | x
C=CCc1ccccc1OCC(O)CN1CCN(c2ccccc2OC)CC1 (centres undefined) | 0.44 | 0.4
O=C(Nc1ccc(-c2cn3c(n2)SCC3)cc1)c1ccco1 | -0.85 | 0.4
Nc1ncn([C@@H]2O[C@H](CO)[C@@H](O)[C@H]2O)c(=O)n1 | 17 | 0.1
Nc1ccc2oc(=O)ccc2c1 | x | -1.1
CCC(O)c1ccc(-c2ccccc2F)cc1 (centres undefined) | -0.59 | -0.9
O=C(CC12CC3CC(CC(C3)C1)C2)NC1CCN(Cc2ccccc2)CC1 | 0.58 | 2.1
CC(C)C12CN3CCN(CC(C3)/C1=N/N)C2 | 0.16 | -0.05
O=S1(=O)CCC(N(CC2CCCO2)S(=O)(=O)c2cccs2)C1 (centres undefined) | x | -0.65
N#Cc1nc2c(C#N)c(N)n(CC3CCCO3)c2nc1C#N (centres undefined) | 12 | 0.35
(cont.)
SMILES | CapD inh | AID504770
FC(F)(F)c1cccc(NC(=S)NCc2ccncc2)c1 | -0.17 | x
O=c1ccc(-c2cccs2)n[nH]1 | 2.5 | -1
CC1COc2c(N3CCN(C)CC3)c(F)cc3c(=O)c(C(=O)Nc4ccc(F)c(F)c4)cn1c23 (centres undefined) | 0.33 | x
O=C(CNc1ccccc1C(=O)NCc1ccco1)Nc1ccc(N2CCOCC2)cc1 | x | -0.55
O=S(=O)(c1cccc2nsnc12)N1CCNCC1 | x | -0.7&-0.15
CCN1C(=O)c2cccc3c(S(=O)(=O)NC4CC(C)(C)NC(C)(C)C4)ccc1c23 | 1.8 | 0.55
Cc1c(N2C(=O)CSC2=S)c(=O)n(-c2ccccc2)n1C | x | -0.7
COc1ccc2c(C)nc(N=C(N)N)nc2c1 | 7.2 | -0.35
Cc1ccc(NC(=O)CN2CCCC2c2cccn2C)cc1C (centres undefined) | x | 0.2
O=C(Cc1cccs1)NC(c1ccccc1)c1ccccc1 | 0.23 | -0.3
CCN(CC)CCn1c2ccccc2c2nc3cc(C(=O)O)ccc3nc21 | x | -0.75
NC(=O)CSc1ccc(-c2ccc3c(c2)OCO3)nn1 | x | -0.85
Clc1ccc(OCc2nc3c4c(-c5ccccc5)c(-c5ccccc5)oc4ncn3n2)cc1 | 0.85 | x
CCOc1ccc(C=C2C(=O)NC(=S)NC2=O)cc1 | -1.3 | x
CCC1(c2cccc(OC)c2)CCCCN(C)C1=O (centres undefined) | -0.24 | 0.25
Cc1nc(C)c(C(=O)OCC(=O)N(C)C)s1 | x | 0.5
CSc1ncc(C(=O)NNC(=O)OCCc2ccc(Cl)cc2Cl)n1C | 0.095 | x
O=C(NCc1csc(-c2cccs2)n1)C1CCCCC1 | 34 | 1.1
CCOC(=O)c1c(CN(CC)CC)oc2ccc(O)cc12 | -0.14 | -0.4
CCOc1ccc(/C=C2\N=C(c3c(-c4ccccc4)noc3C)OC2=O)c(OC(C)=O)c1 | 13 | x
O=C1CCC(=O)N(c2ccccc2)N1 | -0.12 | x
COc1ccc(-c2cn(/N=C/c3ccc(Cl)cc3Cl)c(NC(=O)Nc3ccc(F)cc3F)n2)cc1 | -0.4 | x
CCn1c(SC)nnc1C1CCN(CC(=O)Nc2ccccc2N2CCOCC2)CC1 | x | -1.2
c1coc(-c2nnc3n2C2(CCCC2)Cc2ccccc2-3)c1 | x | -0.55
CC1=C(C)CS(=O)N(S(=O)(=O)c2ccc(Cl)cc2)C1 (centres undefined) | -0.5 | x
(cont.)
SMILES | CapD inh | AID504770
Cc1c(C(=O)N2CCN(c3ncccn3)CC2)oc2ccc(Cl)cc12 | x | 0.8
O=C(NCC(c1ccco1)N1CCCCC1)Nc1ccc(Cl)c(Cl)c1 (centres undefined) | x | -0.4
CC1=CC(C)C(/C=N/N=C(N)N)C(C)C1 (centres undefined) | x | -0.7
CN(C)C(=O)CCC(=O)N(C1CC1)C1CCN(Cc2ccccc2)CC1 | -0.74 | x
CC(=O)OCCNc1nc(-c2ccccc2)nc2ccccc12 | 1.4 | -0.65
CC(CCc1ccccc1)NC(=O)CCc1cn(Cc2ccc(F)cc2)c2ccccc12 (centres undefined) | 0.42 | -0.1
CCCCC#Cc1ccc(C(=O)NNC(=O)Nc2cc(Cl)cc(Cl)c2)o1 | -0.21 | x
O=[N+]([O-])c1ccccc1SCc1n[nH]c(=S)n1-c1cccc(C(F)(F)F)c1 | -0.54 | x
NNC(=O)CCN1CCN(c2ccccc2)CC1 | x | -0.65
CCOC(=O)c1cn2nc(-c3ccc(OC)cc3)cc2nc1C1CCN(C(=O)OC(C)(C)C)CC1 | -0.28 | 1.7
COCCCNC(=S)Nc1ccc(Oc2ccc(Cl)cc2)cc1 | -0.01 | x
O=C(O)C1CCN(C(=O)c2ccccc2)CC1 | 0.07 | -0.7
Fc1ccc(C2N(c3ccccc3)CCN2c2ccccc2)cc1 | -0.095 | x
Brc1ccc2c(c1)C1CC(c3ccco3)=NN1C(c1cccs1)O2 (centres undefined) | 0.91 | x
CN1CCN(Cc2nc3ccccc3c(=O)n2CC#N)CC1 | x | 0.6
CCc1ccc(N(C(=O)c2ccco2)C(C(=O)NC2CCCC2)c2ccncc2)cc1 (centres undefined) | x | -0.05
CC(=O)N1CCc2cc(Br)cc(S(=O)(=O)NN3CCN(c4ccc(F)cc4)CC3)c21 | -0.59 | -0.15
CCS(=O)(=O)N1CCN(c2ccnc3cc(Cl)ccc23)CC1 | 0.19 | 0.2
CN1/C(=C\C(=O)c2cccc(Cl)c2)C(C)(C)c2ccccc21 | -0.73 | -0.45
O=S(=O)(c1ccccc1)n1cccc1 | 0.66 | -0.4

Filtered by structure, the entries above with two or more sulfur atoms (14)
SMILES | CapD inh | AID504770
Cc1c(C(=O)OC(C)C(=O)Nc2ccc(S(N)(=O)=O)cc2)sc2nc3n(c(=O)c12)CCCCC3 (centres undefined) | x | 1.2
COC(=O)c1ccccc1N=Cc1sc(=S)[nH]c1O | -0.11 | 0.05&0.25
S=c1[nH]nc(CSc2nc3ccccc3s2)o1 | -0.95 | -0.75
O=C(O)CCCN1C(=O)/C(=C2\SC(=S)N(CCCC(=O)O)C2=O)SC1=S | 1 | -2.2
Nc1nnc(Sc2ccc(C(F)(F)F)cc2[N+](=O)[O-])s1 | 0.31 | x
COc1ccc2c(c1)-c1c(ssc1=S)C(C)(C)N2C(=O)c1ccc(C)cc1 | -0.62 | x
O=C(CSc1nc2c(c(=O)[nH]1)CSC2)c1ccc(Cl)cc1 | -0.095 | -0.65
O=C(Nc1ccccc1)OCCSc1nc2ccccc2s1 | 0.3 | x
O=S1(=O)CCC(N(CC2CCCO2)S(=O)(=O)c2cccs2)C1 (centres undefined) | x | -0.65
O=S(=O)(c1cccc2nsnc12)N1CCNCC1 | x | -0.7&-0.15
Cc1c(N2C(=O)CSC2=S)c(=O)n(-c2ccccc2)n1C | x | -0.7
O=C(NCc1csc(-c2cccs2)n1)C1CCCCC1 | 34 | 1.1
CC1=C(C)CS(=O)N(S(=O)(=O)c2ccc(Cl)cc2)C1 (centres undefined) | -0.5 | x
O=[N+]([O-])c1ccccc1SCc1n[nH]c(=S)n1-c1cccc(C(F)(F)F)c1 | -0.54 | x

Assay outcomes as filed in PubChem.

Only part of the results is shown, so the mix of outcomes need not match the whole.
